# From PubChem BioAssay
# StopGo FLuc: lowers the firefly signal of an FMDV 2A StopGo reporter | HEK cells with a luciferase reporter of 2A StopGo recoding | Potency, µM (titrated, usually from 57.5 µM), without a hit: at the top dose signal change, negative = less light | 120,000 compounds, 0.23% hits; active = well fitted falling curve with a large enough effect; inconclusive = small, poorly fitted or top-dose-only effect; inactive = no such curve, though single readings can be large or run the other way; further: nearly all actives have a fitted effect of over 60% in size; overnight with compound
# 2A Renilla: FMDV 2A StopGo reporter, Renilla signal; HEK cells with a luciferase reporter of 2A StopGo recoding; Potency, µM (doses to about 57.5 µM), inactives show top-dose signal change, negative = less light; 120,000 compounds, 0.32% hits; AID 1745857; active means well fitted falling curve with a large enough effect; inconclusive means small, poorly fitted or top-dose-only effect; inactive means no such curve, though single readings can be large or run the other way; further: nearly all actives have a fitted effect of over 55% in size; overnight with compound
# The depositor's hits bear a star; ? = inconclusive; & = joins results of further samples; [ ] = another dose, or the depositor's remark. On the % scale 0 is the no-effect control and ±100 the full control effect; potency means the concentration at half of the fitted maximal effect. An excerpt, so the mix of outcomes need not match the whole.
SMILES,StopGo FLuc,2A Renilla
CCN(C(=O)Cn1nc(Cc2ccncc2)c2ccccc2c1=O)c1cccc(Cl)c1,-12%,-5%
CCCc1c(C)nc2ncnn2c1Nc1ccc(C)cc1,-8%,-13%
Cc1nc(-c2cccc(N3CC(C(=O)NCc4ccccc4C)CC3=O)c2)no1 (configuration not stated),-2%,8%
CCn1cc2c(n1)-c1c(oc(C(=O)Nc3cccc(C)c3C)c1C)CC2,109%[activator],11%
CCOc1ccc(-n2nc3cc(C)c(NC(=O)c4cc(OCC)c(OCC)c(OCC)c4)cc3n2)cc1,0%,-4%
CC(=O)c1c(C)[nH]c(-c2csc(-c3cccc(F)c3)n2)c1C,212%[activator],77%[activator]
COc1ccc(C(=O)NC(=O)CSc2ccccc2Cl)cc1,12%,12%
O=S(=O)(c1cccc2ccccc12)N1CCN(c2ccc(Cl)c(Cl)c2)CC1,-11%,13%
O=C(Nc1ccccc1F)c1cc(CN2CCOCC2)on1,145%[activator],1%
Cc1ccc(CN(Cc2cccn2-c2nnc(N3CCCC3=O)s2)C(=O)Nc2ccccc2Cl)cc1,-4%,20%
Cc1ccc2c(C)c(CCC(=O)Nc3ccc(C)c(F)c3)c(=O)oc2c1,-9%,-10%
CCC(C)(C)C1CCc2c(sc(NC(=O)CCl)c2C#N)C1 (configuration not stated),7%,1%
Cc1[nH]c2ccccc2c1C1N=C(N)Nc2nc3ccccc3n21 (configuration not stated),0%,14%
Nc1nc(N)c(-c2ccccc2)s1,21%[11.5 µM],-5%
C(=C1CC(=Cn2c3ccccc3c3ccccc32)C1)n1c2ccccc2c2ccccc21,19%,4%
Cc1cc(C)cc(NC(=O)CCCc2nc3ccccc3o2)c1,28%,15%
Clc1ccc(Nc2c(-c3cccs3)nc3ccc(Cl)cn23)cc1,183%[activator],138%[activator]
CCOC(=O)CNC(=O)CC(c1cc(OC)c(OC)c(OC)c1)N1Cc2ccccc2C1=O (configuration not stated),-3%,12%
COc1ccc(-c2nc3sc(CCNC(=O)C(=O)Nc4cccc(NC(C)=O)c4)c(C)n3n2)cc1,59%[activator],7%
Cc1ccc(/C=C/c2onc(C)c2S(=O)(=O)N2CCC(C(=O)N3CC(C)Oc4ccccc43)CC2)cc1 (configuration not stated),4%,1%
O=C(Cn1nc(-c2cccs2)c2ccccc2c1=O)NC1CCCC1,-5%,-5%
CCn1cc(C(=O)N2CCN(c3cc(C)ccc3C)CC2)c(=O)c2cc(S(=O)(=O)N3CCCCC3)ccc21,-2%,-13%
CSc1ccc(C(C)=O)cc1,0%,-5%
COc1ccc(NC(=O)CC2Oc3ccc(C)cc3NC2=O)cc1Cl (configuration not stated),4%,-3%
CCCc1nnc(SCc2cc(=O)c3c(C)cc(C)cc3[nH]2)n1C,-7%,17%
COC(=O)C(C)Oc1ccc2c(=O)c(-c3ccccc3)c(C(F)(F)F)oc2c1 (configuration not stated),2%,-6%
CCC1CCCCN1C(=O)CCc1ccsc1 (configuration not stated),6%,9%
CCn1cc2nc(SCC(=O)Nc3cc(OC)cc(OC)c3)n(Cc3ccc(Cl)cc3)c(=O)c2n1,-6%,39%[activator]
COc1ccc(NC(=O)CC2C(=O)N(c3cccc(OC)c3)C(=O)N2CCC2=CCCCC2)cc1 (configuration not stated),-14%,74%[activator]
CCOC(=O)C1CCC(CN(Cc2ccccc2)S(=O)(=O)c2ccc(Cl)cc2)CC1 (configuration not stated),-21%,-6%

# 13 structures already listed, sorted by number of heavy atoms, ascending:
SMILES,StopGo FLuc,2A Renilla
CSc1ccc(C(C)=O)cc1,0%,-5%
Nc1nc(N)c(-c2ccccc2)s1,21%[11.5 µM],-5%
CCC1CCCCN1C(=O)CCc1ccsc1 (configuration not stated),6%,9%
Cc1cc(C)cc(NC(=O)CCCc2nc3ccccc3o2)c1,28%,15%
CCCc1nnc(SCc2cc(=O)c3c(C)cc(C)cc3[nH]2)n1C,-7%,17%
O=C(Cn1nc(-c2cccs2)c2ccccc2c1=O)NC1CCCC1,-5%,-5%
COC(=O)C(C)Oc1ccc2c(=O)c(-c3ccccc3)c(C(F)(F)F)oc2c1 (configuration not stated),2%,-6%
CCOC(=O)C1CCC(CN(Cc2ccccc2)S(=O)(=O)c2ccc(Cl)cc2)CC1 (configuration not stated),-21%,-6%
C(=C1CC(=Cn2c3ccccc3c3ccccc32)C1)n1c2ccccc2c2ccccc21,19%,4%
CCOC(=O)CNC(=O)CC(c1cc(OC)c(OC)c(OC)c1)N1Cc2ccccc2C1=O (configuration not stated),-3%,12%
COc1ccc(-c2nc3sc(CCNC(=O)C(=O)Nc4cccc(NC(C)=O)c4)c(C)n3n2)cc1,59%[activator],7%
Cc1ccc(/C=C/c2onc(C)c2S(=O)(=O)N2CCC(C(=O)N3CC(C)Oc4ccccc43)CC2)cc1 (configuration not stated),4%,1%
CCn1cc(C(=O)N2CCN(c3cc(C)ccc3C)CC2)c(=O)c2cc(S(=O)(=O)N3CCCCC3)ccc21,-2%,-13%

# Additional records.
SMILES,StopGo FLuc,2A Renilla
CN(C(=O)c1ccc(Br)cc1)C1CCCCC1,0%,26%
CSc1nn(Cc2ccccc2C)c(NC(C)=O)c1S(=O)(=O)c1ccc(C)cc1,-5%,40%[activator]
Cc1cccc(C)c1-n1nnnc1C1(NC(C)C)CCCCC1,0%,65%[activator]
CCCSc1nnc2n(C)c(=O)c3c(n12)-c1ccccc1CC31CCCCC1,-11%,-20%
COc1cc(/C=C/c2ccc3cccc([N+](=O)[O-])c3n2)ccc1O,0%,-25%
Cc1ccc(-n2c(SCC(=O)Nc3cccc(Cl)c3)nc3n[nH]c(C)c3c2=N)cc1,-22%,-4%
COc1ccc(C(=O)N2CC(=O)Nc3ccc(C)cc3C2c2ccccc2)c(OC)c1 (configuration not stated),6%,154%[activator]
COc1ccc(NC(=O)CSC2=NC3(CCCCC3)Nc3ccccc32)cc1Cl,9%,-10%
COc1ccc(C(=O)N/C(=C\c2ccc(-c3cccc(C(F)(F)F)c3)o2)C(=O)NC(C)C)cc1,-8%,1%
COc1cc(NC(=O)CSc2cc(=O)n(C)c3ccccc23)cc(OC)c1OC,-16%,-7%
COc1cccc(NC(=O)C(C)Sc2nncn2-c2ccccc2)c1 (configuration not stated),-2%,-16%
CC(=O)N1CCN(C(=O)COc2ccc(N(C)S(=O)(=O)c3cccs3)cc2)CC1,-2%,1%
Cc1ccc2[nH]c3c(=O)n(CC(=O)NCc4ccco4)ncc3c2c1,-19%,-18%
COc1ccc(Cl)cc1NC(=O)c1ccc2nc(Cc3ccccc3)oc2c1,?,?
CC1CCN(CCNC(=O)c2ccc(Cn3c(SCc4ccccc4)nc4cccnc43)cc2)CC1,45%[activator],-3%
O=C(Nc1sc2c(c1C(=O)O)CCCC2)c1cccnc1,54%[activator],13%
COc1ccc(-n2cc(C(=O)NCCc3ccc(C)cc3)c3ccccc3c2=O)cc1,17%,-3%
CC(C)Cn1cc(/C=C2\SC(=O)N(C(C)C)C2=O)c2ccccc21,7%,-5%
O=C1CC(O)=C(Br)O1,15%,3%
COc1ccccc1-c1noc(-c2ccc(NCc3ccccc3)c([N+](=O)[O-])c2)n1,2%,-10%
Cc1ccc(C(=O)NCCC(=O)N2CCCC2)cc1,137%[activator],8%
CCOC(=O)c1ccc(NC(=O)Cn2nnc(-c3ccc(C(F)(F)F)cc3)n2)cc1,-12%,-12%
CC(C)CCCNC(=O)c1cn(C)c2ccccc12,106%[activator],8%
COc1ccccc1Nc1nc(N)nc(CN2CCN(c3cnccn3)CC2)n1,14%,1%
O=C(O)C1CCN(C(=O)Cn2ccc3ccc(Br)cc32)CC1,59%[activator],0%
CC(O)(C#CCN1CCCCC1)C1CC2C=CC1C2 (configuration not stated),-3%,-2%
CNc1c(NS(=O)(=O)c2ccc(C(C)(C)C)cc2)c(=O)oc2ccccc12,-10%,-2%
Cc1cccc(-c2cccc3c4c([nH]c23)[C@@H]2C[C@H](N(C)C(=S)NCCc3ccccc3)[C@H]([C@H](C)O)CN2CC4)c1,20%,1%
COc1ccc(/C=N/NC(=O)C2CC2)cc1,206%[activator],23%
Cc1cccc(Cn2c(CCNC(=O)C(C)(C)C)nc3ccccc32)c1,-8%,0%
C=CCNC(=O)NC(=O)CNc1ccccc1C#N,19%,-12%[1.06 µM]
CCNC(=O)NC(=O)C(C)Oc1ccc(C(=O)c2ccc(Cl)cc2)cc1 (configuration not stated),13µM*,?
CCCC(=O)Nc1cccc(NC(=O)c2ccc(C)c(C)c2)c1,153%[activator],28%
CCOC(=O)N1CCC(NC(=O)CS(=O)Cc2nc(-c3ccccc3C)oc2C)CC1 (configuration not stated),0%,-18%
N#Cc1ccc(S(=O)(=O)N2CCC(C(=O)N3CCCC3c3ccc4c(c3)OCCO4)CC2)cc1 (configuration not stated),-8%,-15%
CCC(=O)c1ccc(OC(=O)c2nn(C(C)C)c(=O)c3ccccc23)cc1,1%,-5%
CS(=O)(=O)N1CCc2cc(C(=O)Nc3ccc(S(N)(=O)=O)cc3)ccc21,-6%,4%
COc1cc(C#N)cc(Cl)c1OCc1ccccc1C#N,0%,0%
O=C(CNC(=O)c1ccc(Cl)cc1)OCc1cc(=O)n2ccsc2n1,-18%,-10%
COCCn1c(CN2CCC(C(N)=O)CC2)nc2c1c(=O)n(C)c(=O)n2C,-1%,-13%
CC(C)Oc1ccc(C(=O)Nc2c(C(=O)Nc3cccc(F)c3)oc3ccccc23)cc1,37%[activator],-9%
O=C(/C=C/c1ccc(-c2ccccc2)s1)N(Cc1ccco1)C1CC1,82%[activator],114%[activator]
C[C@@H]1OC(C2CCCCC2)N(C)[C@H]2C[C@H]3c4cc(N5CCOCC5)ccc4CCN3C[C@@H]12 (some centres not stated),-1%,-3%
O=C(CCn1nc(-c2ccc(Cl)cc2)ccc1=O)NCCc1ccccc1,90%[activator],10%
COc1cc(C2Nc3ccccc3-c3nnc(SCc4ccc(Cl)cc4)nc3O2)ccc1OCC(=O)O (configuration not stated),-9%,-7%
COc1cccc(NC(=O)c2csnn2)c1,2%,35%[activator]
NC(N)=NN=C(/C=C/c1ccc([N+](=O)[O-])o1)/C=C/c1ccc([N+](=O)[O-])o1,?,?
N#Cc1nc(COc2ccc3c(c2)OCO3)oc1N1CCCCCC1,111%[activator],33%[activator]
Clc1ccc(-c2noc(CSc3nncc4ccccc34)n2)cc1,20%,-12%
Clc1cccc(-n2ncc3c(NC4CCCCCC4)ncnc32)c1,225%[activator],7%&-8%
CSC(NS(=O)(=O)c1cccs1)=C(c1nc2ccccc2s1)c1nc2ccccc2s1,0%,37%[activator]
Nc1ccn([C@H]2CC[C@@H](CO)O2)c(=O)n1,-13%,-5%
COC(=O)c1ccccc1NC(=O)CCS(=O)(=O)c1nc(-c2ccc3c(c2)OCO3)cc(C(F)(F)F)n1,-23%,-3%
Cc1ccc(-c2cnc(CCC(=O)Nc3ccccc3O)o2)cc1C,81%[activator],12%
CC/C=C(/C)C(=O)N1CCC(C(=O)O)CC1,-6%,5%
CC1CCCC(NC(=S)NC2CC2)C1C (configuration not stated),-12%,7%
FC(F)(F)C(Cl)Br (configuration not stated),0%,-1%
COc1cc(C(CC(=O)NCc2ccccc2Cl)N2Cc3ccccc3C2=O)cc(OC)c1OC (configuration not stated),10%,186%[activator]
CN1CCN(c2nc3ccccc3nc2C(=O)Nc2ccc(Br)cc2)CC1,-11%,-17%
CCn1nc(C)c2c(-c3ccccc3)cc(=O)n(C(C)C(=O)NCCC(C)C)c21 (configuration not stated),-7%,-5%

# More structures follow:
SMILES,StopGo FLuc,2A Renilla
CCCCNC(=O)CSc1nnc(C)c2c(C)n(-c3ccccc3)nc12,-8%,-5%
CCCN(CCC)CCCNC(=O)Cn1ncc2c3ccccc3n(Cc3ccccc3F)c2c1=O,6%,7%
Cc1ccccc1Cc1c(C)nc2nc(SCC(=O)NC(C)c3ccccc3)nn2c1C (configuration not stated),-10%,4%
CCC(Oc1ccccc1)C(=O)Nc1ccc2oc(-c3ccc(OC)cc3)nc2c1 (configuration not stated),110%[activator],-7%
COc1ccc(CNC(=O)c2ccc(CS(=O)(=O)c3ccc(Br)cc3)o2)cc1,-25%,-3%
CC(C)CN(CCCNC(=O)CN1C(=O)COc2ccc(S(=O)(=O)N3CCCCCC3)cc21)CC(C)C,-10%,-5%
CCC(=O)N1N=C(c2cccs2)CC1c1ccc2nccnc2c1 (configuration not stated),10%,-1%
COc1ccc(C2=C(C)C(=NCCCN3CCN(c4cc(Cl)ccc4C)CC3)NS2(=O)=O)cc1,-29%,-24%
Cc1oc(-c2ccccc2F)nc1CS(=O)(=O)CC(=O)NCCc1ccc(Cl)cc1,-17%,5%
CCOc1ccc(CCNC(=O)c2cnc3sc(N(CC)CC)nn3c2=O)cc1OCC,7%,-20%
COc1ccc(CNC(=O)C2=C(c3ccccc3)c3cc(Cl)ccc3S(=O)(=O)N2C)cc1,-8%,-6%
CCN(CC)c1ccc(NC(=O)CN2CCN(c3ccccc3OC)CC2)cc1,-11%,-7%
CC(C)NC(=O)CNC(=O)c1cc(-c2ccccc2)nc2ccccc12,14%,17%
CCC(Sc1nc2c(sc3ccccc32)c(=O)n1CCc1ccccc1)C(=O)N(CC)CC (configuration not stated),2%,-11%
CCCN1CCN(C(=O)c2oc3ccccc3c2NC(=O)c2ccccc2OCC)CC1,-18%,1%
CCCCCn1c(=O)[nH]c2cc(C(=O)N3CCN(c4cccc(C)c4)C(C)C3)ccc2c1=O (configuration not stated),-4%,-3%
O=S(=O)(NCc1ccc(F)cc1)c1ccc(N2CCCCS2(=O)=O)cc1,?,10%
Cc1nc2ccc(C(=O)OC(C)C(=O)NC(=O)NCc3ccccc3)cc2nc1C (configuration not stated),150%[activator],-5%

# One compound at a time, as listed above.
# `Cc1oc(-c2ccccc2F)nc1CS(=O)(=O)CC(=O)NCCc1ccc(Cl)cc1` across the screens: StopGo FLuc = -17%; 2A Renilla = 5%
# `O=S(=O)(NCc1ccc(F)cc1)c1ccc(N2CCCCS2(=O)=O)cc1` across the screens: StopGo FLuc = ?; 2A Renilla = 10%
